# Source: PubChem BioAssay
# RE007 growth inh – less growth of the S. pombe RE007 Vpr strain | S. pombe RE007 Vpr strain, BacTiter-Glo ATP luminescence, 24 h; control for the full effect not named in the record | Potency, µM (top dose mostly 92.2 µM), for inactives: top-dose activity change, negative = less growth | 360,000 compounds, 0.21% hits; active = well fitted falling curve with a large enough effect; inconclusive = small, poorly fitted or top-dose-only effect; inactive = no such curve, though single readings can be large or run the other way;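 further: on the % scale 0 is the no-effect control and ±100 the full control effect; nearly all actives have a fitted effect of over 50% in size; the assay follows cell death caused by Vpr and the record does not say whether a fall means rescue or toxicity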
#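 Fission yeast RE007 carrying one integrated HIV-1 vpr copy, seeded at OD 0.01 in PMG+AL medium with 23 nL pinned compound. Grown 24 h at 30 degrees; viability read by BacTiter-Glo luminescence after 5 min.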
# StopGo reporter – lowers the luciferase signal of an FMDV 2A StopGo reporter; human cells with a luciferase reporter of 2A StopGo recoding; control for the full effect not named in the record; Potency, µM (series often up to 57.9 µM), for the others: at the top dose signal change, negative = less light; 410,000 compounds, 1.2% hits; AID 1159524; active = well fitted falling curve with a large enough effect; inconclusive = small, poorly fitted or top-dose-only effect; inactive = no such curve, though single readings can be large or run the other way; tested in HEK293T cells; further: on the % scale 0 is the no-effect control and ±100 the full control effect; nearly all actives have a fitted effect of over 45% in size; luciferase light after 4 h
# LASV entry inh – blocks Lassa virus binding to or entry into cells; Lassa virus pseudotype entry inhibition, cell reporter; control for the full effect not named in the record; Potency, µM (series often up to 37.9 µM), for the others: top-dose activity change, negative = inhibition, most hits filed as inhibitors; 300,000 compounds, 1.2% hits; AID 540256; active means well fitted inhibition curve with a large enough effect; inconclusive means small, poorly fitted or top-dose-only effect, or effect the other way; inactive means flat fitted curve, though single readings scatter; tested in HEK293 cells; further: on the % scale 0 is the no-effect control and ±100 the full control effect; nearly all actives have a fitted effect of over 50% in size; luciferase read-out
# NS1 inh – influenza NS1 inhibition | S. cerevisiae slowed by influenza A NS1, growth recovery by OD600 | Potency, µM (titrated, usually from 46.1 µM), inactives show at the highest dose activity, positive = more growth | 270,000 compounds, 0.4% hits; active means well fitted rising curve with a large enough effect; inconclusive means small, poorly fitted or top-dose-only effect; inactive means no such curve, though single readings can be large or run the other way; further: nearly all actives have a fitted effect of over 50% in size
#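 S. cerevisiae expressing influenza A NS1, grown in glucose, washed, then diluted 1:100 into pH 6.0 -URA galactose medium with 23 nl compound. Growth recovery read as OD600; NS1-free strain serves as control.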
# SARS PLpro yeast – blocks SARS-CoV papain-like protease in a yeast assay; S. cerevisiae expressing SARS-CoV PLpro, growth rescue; control for the full effect not named in the record; 330,000 compounds, 0.19% hits; Potency, µM (highest dose often 32.9 µM), for the others: top-dose activity, positive = growth rescue; active means well fitted rising curve with a large enough effect; inconclusive means small, poorly fitted or top-dose-only effect; inactive means no such curve, though single readings can be large or run the other way; further: 0% is about no effect; nearly all actives have a fitted effect of over 55% in size; growth read by luminescence after 48 h
# Cruzain noTriton – blocks cruzain activity in detergent-free assay; purified cruzain, Z-FR-AMC fluorescence, no detergent; Potency, µM, for inactives: max response, negative = inhibition, actives largely listed as inhibitors; 200,000 compounds, 2.3% hits;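 further: plate controls were enzyme without inhibitor for no effect and buffer without enzyme for full effect; nearly all actives have a fitted effect of over 40% in size; top concentration of the series not given in the record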
# Target sequence (P25779 123-467 limits assumed): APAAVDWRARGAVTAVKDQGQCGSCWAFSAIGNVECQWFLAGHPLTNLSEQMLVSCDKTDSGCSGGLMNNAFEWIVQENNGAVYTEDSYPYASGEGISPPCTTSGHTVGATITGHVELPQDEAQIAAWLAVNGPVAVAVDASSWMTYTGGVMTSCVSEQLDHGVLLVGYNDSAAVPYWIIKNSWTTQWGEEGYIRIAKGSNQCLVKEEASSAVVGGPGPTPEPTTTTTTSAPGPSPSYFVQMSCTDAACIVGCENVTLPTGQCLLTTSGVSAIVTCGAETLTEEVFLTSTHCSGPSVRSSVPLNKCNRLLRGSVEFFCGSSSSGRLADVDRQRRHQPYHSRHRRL
#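 Detergent-free condition (0.00005% Triton X-100) in acetate buffer pH 5.5 with DTT. 1.5 nM enzyme and compound were pre-mixed 15 min, then 2 uM Z-FR-AMC substrate added; reaction progress from fluorescence change between first and third reads (60 s).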
# Marburg entry inh – inhibitors of Marburg virus binding or cell entry. Marburg virus pseudotyped entry inhibition, cell reporter; control for the full effect not named in the record; about a third of the inactives were read at about 46 µM. Potency, µM (titrated, usually from 37.8 µM), for inactives: top-dose activity change, negative = inhibition, hits mostly inhibitors. 300,000 compounds, 1.8% hits. AID 540276; active = well fitted inhibition curve with a large enough effect; inconclusive = small, poorly fitted or top-dose-only effect, or effect the other way; inactive = flat fitted curve, though single readings scatter; tested in HEK293 cells; about a fifth of its hits are not listed in these tables; further: on the % scale 0 is the no-effect control and ±100 the full control effect; luciferase read-out
# Cruzain inh Det – blocks cruzain activity in presence of Triton detergent; Potency, µM, inactives show max response, negative = inhibition, usual class: inhibitors; purified cruzain, Z-FR-AMC fluorescence, 0.01% Triton; 200,000 compounds, 0.43% hits; P25779;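 further: plate controls were neutral wells for no effect and buffer without enzyme for full effect; nearly all actives have a fitted effect of over 40% in size; top concentration of the series not given in the record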
#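 Cysteine protease activity tested under reducing, mildly acidic conditions (100 mM sodium acetate pH 5.5, 5 mM DTT) plus 0.01% Triton X-100. Cruzain 1.5 nM; substrate Z-FR-AMC 2 uM; 15 min compound preincubation at room temperature.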
# * marks the source's active call; other numbers are inactive results; ? = inconclusive; . = not tested or not shown; & = joins results of further samples; [ ] = remark or other dose. Unless noted, the call rests on the fitted dose curve; in most records, active means well fitted curve in the direction sought with a large enough effect; inconclusive means small, poorly fitted or top-dose-only effect, or another doubt; inactive means no such curve, though single readings can be large; an effect the other way counts as inactive or inconclusive. Potency means the concentration at half of the fitted maximal effect.
SMILES,RE007 growth inh,StopGo reporter,LASV entry inh,NS1 inh,SARS PLpro yeast,Cruzain noTriton,Marburg entry inh,Cruzain inh Det
Cc1ccc2c(Cl)cc(Cl)c(OCC(=O)NC(=O)NCc3ccco3)c2n1,-13.1%,-21.0%,-2.8%,-5.8%,-4.6%,3.0%,-2.3%,-23.6%
O=C(COC(=O)C1CCN(c2ccc(C(F)(F)F)cn2)CC1)NCc1cccc(Cl)c1,4.1%,3.6%,16.9%,.,-0.4%,.,-20.0%,.
N#Cc1cnc(SCC(=O)c2ccccc2)nc1N,1.7%,13.0%,7.0%,?,-0.1%,-27.5%,10.0%,-3.0%
Cc1ccc(-n2ncc3c(N4CCC(C)CC4)ncnc32)cc1C,.,-49.6%,9.0%[46.1 µM],.,.,-1.2%,.,-0.2%
COc1ccc(CNc2ncc(-c3ccc(Br)cc3)n2C)cc1OC,2.6%,?,.,11.2%,3.5%,.,.,.
CCOc1ccccc1NC(=O)CSc1nc(=O)[nH]c2c1CCCC2,.,0.0%,?,.,.,11.3%,.,-1.3%
N#C/C(=C\c1cc([N+](=O)[O-])ccc1Cl)C(N)=O,-3.2%,0.0%,-20.6%,.,2.8%,.,?,.
C[C@H]1CCC(=O)N([C@H](CN=[N+]=[N-])Cc2ccccc2)CC1,60.6%,-9.3%,.,-27.0%,27.9%,.,.,.
O=C(NCc1ccccc1)c1cccc(COc2ccc(Cl)cc2)c1,0.5%,9.7%,?,-57.2%,-8.9%,-1.5%,?,-4.6%
CCOc1ccccc1NC(=O)C(OC(=O)c1ccc(NC(=O)CC#N)cc1)c1ccccc1 (stereo not drawn),-14.3%,-15.9%,-9.2%,.,-3.3%,.,7.3%[46.1 µM],.
O=S(=O)(CCN(CCS(=O)(=O)C(F)(F)F)CC1CCCO1)C(F)(F)F (stereo not drawn),-17.9%,.,?,-68.6%,-0.4%,-13.4%,?,3.5%
Cc1nc2scc(C)n2c(=O)c1S(=O)(=O)N1CCN(c2ccc([N+](=O)[O-])cc2)CC1,21.3%,1.1%,.,3.6%,3.0%,.,.,.
OCCN(CCO)c1ncnc2c1sc1nc(N3CCOCC3)c3c(c12)CCCC3,-14.5%,-16.5%,-18.1%,-71.7%,0.3%,?,?,-11.3%
CC1=NN(CCc2ccccn2)C(=O)CC1,2.1%,2.5%,-7.1%,.,.,.,?,.
Fc1cc2ncn(Cc3ccccc3)c2cc1F,13.4%,0.0%,6.0%,-11.3%,1.3%,0.6%,21.1%,2.2%
COC(=O)[C@H](Cc1c[nH]c2ccccc12)NC(=O)NCc1ccccc1,-11.4%,3.2%,-16.3%[46.1 µM],-4.6%,-0.1%,.,12.5%[46.1 µM],.
O=C(COC(=O)c1cc(=O)c2ccccc2o1)Nc1cc(Cl)ccc1Cl,24.8%,0.2%,1.1%,.,1.7%,.,4.7%,.
CN1CCc2nc3ccccc3c(C(=O)OCC(=O)N(CCC#N)c3ccccc3)c2C1,-14.4%,-25.9%,?,9.7%,-0.6%,.,?,.
Cn1cc(CCC(=O)NCc2ccc3c(c2)OCO3)c2ccccc21,-0.9%,25.3%,3.2%,-15.2%,2.7%,?,16.6%,-1.2%
CCOC(=O)c1cn(CC)c2cc(N3CCSCC3)c(F)cc2c1=O,2.4%,12.4%,0.4%,-4.5%,0.9%,1.5%,1.1%,-1.7%
O=C(N/N=C/c1ccoc1)c1ccc(Cl)cc1Cl,11.6%,22.4%,8.9%[46.1 µM],9.1%,0.5%,.,-2.6%[46.1 µM],.
Cc1ccc(-c2csc3ncnc(N4CCN(C(=O)c5ccccc5)CC4)c23)cc1,11.1%,25.1µM*,?,2.9%,-4.0%,-10.1%,?,-17.8%
CC(NCCN(C)C)C(=O)C12CC3CC(CC(C3)C1)C2 (stereo not drawn),6.8%,-4.1%,.,-3.2%,-0.7%,.,.,.
CC(=O)c1cccc(N(C(=O)Cn2nnc3ccccc32)C(C(=O)NCc2ccccc2)c2ccc(F)cc2)c1 (stereo not drawn),.,9.5%,?,.,.,-28.3%,?,-1.6%
O=c1c2c(-c3ccccc3)csc2ncn1/N=C/c1ccc(O)c([N+](=O)[O-])c1,13.5%,-26.6%,-13.2%,.,-5.7%,.,-25.5%,.
C(=C\c1ccccc1)/C=N/Nc1ccc2nncn2n1,-7.5%,0.3%,.,-2.0%,1.3%,.,.,.
COc1cc(/C=C2/NC(=O)NC2=O)ccc1OCC(=O)Nc1ccc(F)cc1,-22.1%,-14.2%,0.2%,11.0%,1.3%,.,-4.1%,.
C=CCc1ccc(OCCOc2ccc(/C=N/n3cnnc3)cc2OCC)c(OC)c1,19.9%,-20.6%,-1.1%,12.8%,-8.0%,?,-0.2%,-5.7%
CS(=O)(=O)N1CCN(C/C=C/c2ccccc2)CC1,-0.4%,22.3%,0.0%,3.6%,6.5%,7.9%,14.8%,5.7%
CC[C@]12c3[nH]c4ccc(OC)cc4c3CCN1C(=O)C(CC(=O)NC/C=C(\C)CCC=C(C)C)C[C@@H]2C(=O)N1CCN(C(=O)c2ccco2)CC1 (stereo partly drawn),1.3%,?,.,.,4.4%,.,-8.9%,.
COc1cccc(-n2c(SCC(=O)Nc3nccs3)nnc2-c2ccoc2C)c1,6.5%,-4.1%,-6.5%,-24.4%,-20.5%,-2.9%,19.3%[46.1 µM],-1.6%
COc1ccc(CNC(=O)C(c2ccncc2)N(C(=O)Cc2cccs2)c2ccccc2C)cc1 (stereo not drawn),2.5%,.,11.7%,-28.8%,-1.0%,3.1%,?,-3.3%
COc1cccc(/C=N/NC(=O)CCc2c(C)n[nH]c2C)c1O,-0.5%,-7.0%,2.1%[46.1 µM],0.8%,-0.1%,.,-34.6%[46.1 µM],.
CCCCc1nnc(SCC(=O)NC2CCCCC2)n1C,-2.7%,-4.2%,19.7%[46.1 µM],2.4%,1.3%,.,4.9%[46.1 µM],.
CN(c1ccc(C(=O)Nc2ccccc2C(F)(F)F)cc1)S(C)(=O)=O,-0.5%,2.2%,?,-1.9%,5.5%,-10.1%,12.0%[46.1 µM],8.8%
Cc1ccc(NC(=O)c2ccc(NCCN)c([N+](=O)[O-])c2)cc1,-17.0%,18.5%,?,11.1%,6.1%,-5.8%,5.3%,-1.1%
CC1(C)CC(=O)C2=C(C1)c1c(ccc3ccccc13)NC2c1ccco1 (stereo not drawn),-1.1%,48.1%[activator],-14.8%,-41.2%,-3.2%,11.4%,18.0%,8.4%
CCc1ccccc1Nc1nc(N)nc(COC(=O)CCS(=O)(=O)c2ccccc2)n1,-13.7%,5.4%,-1.1%,.,-8.1%,.,-3.8%,.
COc1ccc(Cn2cccc(NC(=O)Nc3cccc(C#N)c3)c2=O)cc1,-2.5%,?,?,8.5%,-0.1%,3.9%,?,4.2%
OCC1(Cc2ccccc2)CCN(Cc2ccccn2)CC1,-2.5%,-10.2%,.,8.4%,1.6%,.,.,.
CCOC(=O)c1ccc2c(c1)nc(-c1ccccn1)n2CC,11.9%,15.7%,.,-14.3%,0.9%,.,-24.8%[46.1 µM],.
Clc1cccc(-c2ccnc3nc(-n4cccc4)nn23)c1,9.4%,1.1%,-3.2%,-6.4%,-5.9%,7.6%,11.0%,-0.2%
O=C(c1ccc2c(c1)N(Cc1ccc(F)cc1)C(=O)c1ccccc1S2(=O)=O)N1CCCC1,.,9.8%,10.9%[46.1 µM],.,.,?,5.1%[46.1 µM],0.5%
COc1ccc(OC)c(NC(=O)CCCN2C(=S)NC(C)(C)CC2C)c1 (stereo not drawn),-12.7%,-14.7%,5.6%,0.6%,-4.7%,-3.0%,?,-1.2%
Cn1cc([N+](=O)[O-])c(C(=O)N2CCN(Cc3ccc4c(c3)OCO4)CC2)n1,-4.4%,4.4%,7.2%[46.1 µM],?,3.4%,.,22.9%[46.1 µM],.
CCn1cc(C(c2ccccc2)C(C(C)=O)[N+](=O)[O-])c2ccccc21 (stereo not drawn),-9.9%,-11.9%,?,?,-0.9%,.,?,.
COc1ccc(NC(=O)c2c(NC(=O)CNCc3ccco3)sc3c2CCC3)c(OC)c1,-10.3%,1.2%,-5.5%,4.2%,3.5%,-26.1%,1.4%&1.4%,3.6%
COc1ccc(-c2csc(Nc3cccnc3)n2)cc1,0.4%,32.1%[activator],-17.1%,-7.4%,.,?,-29.8%,10.7%
O=C(CCNS(=O)(=O)c1ccc(OC(F)(F)F)cc1)NC1CC1,3.0%,-1.4%,13.4%[46.1 µM],.,3.1%,.,-4.1%[46.1 µM],.
O=C(CN(Cc1ccccc1)C(=O)CNS(=O)(=O)c1ccccc1)NCc1ccco1,-16.7%,17.1%,?,5.7%,-0.4%,.,-1.7%[46.1 µM],.
Fc1ccccc1NC(=S)N1CCOCC1,0.7%,-13.6%,.,-1.2%,-1.1%,.,.,.
CSc1cccc(NC(=S)N(CCCN2CCCC2)Cc2cccn2Cc2ccc(Cl)cc2)c1,-20.9%,39.8µM*,2.82µM*,.,-0.3%,.,6.31µM*,.
CCOc1ccccc1C1C(C(=O)Nc2ccccc2)=C(C)Nc2nc(SCC(=O)c3ccc(C)cc3)nn21 (stereo not drawn),.,-4.8%,9.0%[46.1 µM],.,.,0.8%,.,2.6%
Oc1ccc(CNc2ccccc2)c2cccnc12,-14.8%,?,?,-6.6%,10µM*,?,?,-4.3%
O=c1[nH]c(=O)n(Cc2ccc(F)cc2)c(O)c1C=NCCN1CCCCC1,-17.0%,6.2%,-4.2%,3.9%,13.1%,-8.0%,21.8%,-3.4%
CCCOc1ccc2cc(C(=O)NCc3ccccc3)c(=O)oc2c1,-6.0%,33.9%[activator],-19.3%,-8.5%,-4.2%,.,8.1%[46.1 µM],.

# This is a random part of the collection, and some 4.6% of all compounds hit somewhere here.
